From PubChem
Bfl-1 A1 inh – inhibitors of the anti-apoptotic protein A1, read as caspase activation; MEF A1-2A-BIM cells, Caspase-Glo 3/7 luminescence, 3 h; percent of clofoctol response, vehicle zero; caspase activation, % (concentration not given with the values); 330,000 tested, 0.066% active;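 active = over half of replicate activation scores above 10%, or exactly half above 10 with the replicate mean above 10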;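 also: wells of about 30 µL received 50 nL stock; many hits fall short of the cut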
Ecoli growth – E. coli growth inhibition; OD600 absorbance (test concentration not listed); 330,000 tested, 0.21% active; Escherichia coli growth, OD600, 23 h; stronger effect = lower value; AID 1053175;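 active = OD600 absorbance below the run mean of sample wells minus 3.6 SD, in any replicate, cut at about 0.56 in these data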;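 also: stock transfer was 300 nL into about 60 µL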
AF4-AF9 inh – MLL-AF4/AF9 protein interaction inhibition | P42568 | AlphaScreen, biotin-AF4 peptide binding to FLAG-AF9 | AID 651704 | inhibition, % at 10 µM | 350,000 tested, 0.47% active;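 active = every replicate reaching a set inhibition limit, whatever the replicate mean, cut at about 25% in these data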;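 also: 0% = plate neutral control median and 100% = total signal loss; the record names both 10 and 1 µM as test concentration; the first replicate is given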
Target sequence (P42568 whole entry, looked up): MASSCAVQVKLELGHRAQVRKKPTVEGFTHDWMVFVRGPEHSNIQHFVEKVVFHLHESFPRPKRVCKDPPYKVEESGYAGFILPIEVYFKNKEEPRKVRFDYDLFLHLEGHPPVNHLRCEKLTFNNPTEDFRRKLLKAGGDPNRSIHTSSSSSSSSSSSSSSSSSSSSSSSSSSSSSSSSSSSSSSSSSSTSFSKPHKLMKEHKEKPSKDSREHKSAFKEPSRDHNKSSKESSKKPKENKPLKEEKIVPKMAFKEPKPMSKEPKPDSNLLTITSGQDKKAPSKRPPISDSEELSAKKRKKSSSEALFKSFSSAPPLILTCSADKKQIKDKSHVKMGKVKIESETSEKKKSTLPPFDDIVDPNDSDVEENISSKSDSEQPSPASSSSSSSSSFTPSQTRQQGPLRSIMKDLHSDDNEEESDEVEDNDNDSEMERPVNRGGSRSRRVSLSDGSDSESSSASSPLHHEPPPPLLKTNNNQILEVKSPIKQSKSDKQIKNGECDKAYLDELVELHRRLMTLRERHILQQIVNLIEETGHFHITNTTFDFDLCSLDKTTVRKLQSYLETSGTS
UCH37 DUB inh – inhibitors of human deubiquitinating enzyme UCH37; Q9Y5K5; purified proteasome/UCH37, Ub-AMC cleavage fluorescence; inhibition, % (test concentration not listed); 330,000 tested, 0.33% active;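 active = mean of two replicates above 20%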;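 also: 0% = compound-free wells with enzyme and 100% = wells lacking proteasome; stock transfer was 100 nL into about 20 µL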
Target sequence (Q9Y5K5 whole entry, looked up): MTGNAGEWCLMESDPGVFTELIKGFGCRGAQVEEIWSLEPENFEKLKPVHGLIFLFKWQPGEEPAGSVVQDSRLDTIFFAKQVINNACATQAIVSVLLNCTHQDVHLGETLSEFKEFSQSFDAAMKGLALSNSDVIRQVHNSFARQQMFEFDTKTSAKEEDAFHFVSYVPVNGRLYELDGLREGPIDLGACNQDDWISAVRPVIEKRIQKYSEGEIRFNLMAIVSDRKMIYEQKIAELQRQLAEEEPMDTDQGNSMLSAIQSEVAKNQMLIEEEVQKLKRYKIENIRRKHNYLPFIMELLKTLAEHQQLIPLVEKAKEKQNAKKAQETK
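assay system = human UCH37 enzyme supplied as purified proteasome complex | amount = proteasome at 0.15 nM in the dispensed enzyme solution | schedule = 30 min compound-proteasome preincubation then 25 min substrate reaction, room temperature | measured by = fluorescence, ex 355 nm, em 460 nm | benchmarks = no-proteasome wells (full inhibition) and compound-free wells (no inhibition)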
Ecoli rRNA inh – selective bacterial rRNA inhibition in E. coli | E. coli WT GFP vs humanized-ribosome RFP mutants, fluorescence, 24 h; stronger effect = lower value; DMSO median 0, no signal -100 | GFP signal change (wild-type ribosome), % (no concentration beside the values) | 350,000 tested, 1.6% active | AID 720706;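 active = significant combined selectivity score with lowered wild-type GFP, culture density cut under 30%, mutant RFP and density less affected; inactive = any of these conditions unmet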; also: one replicate is shown; some compounds called inactive have numbers as strong as hits
T cruzi inh – T. cruzi replication inhibition. 300,000 tested, 1.4% active. T. cruzi beta-gal in NIH3T3, luminescence, 90 h. inhibition, % (concentration not given with the values). AID 1885;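 active = mean inhibition across valid replicates above about 55%, limit read from the data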;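 also: signal also drops with host cell toxicity which is not excluded here; 0% = plate median of DMSO wells and 100% = zero luminescence signal; higher percent means less beta-gal luminescence so fewer parasites; stock transfer was 50 nL into about 50 µL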
Beta cell apopt – blocks beta cell apoptosis. 300,000 tested, 0.8% active. protection from apoptosis, % (no concentration beside the values). INS-1E cytokine-induced death, ATP luminescence, 48 h; percent of positive-control rescue, neutral wells zero;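 active = all replicates at 75% or more, or half of them and the mean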;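 also: 0% = cytokine-treated negative control wells and 100% = positive control rescue; higher means more ATP so stronger rescue from cytokine killing; wells of about 40 µL received 100 nL stock; the first replicate is given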
FGF22 binding – FGF22 (human) thermal shift binding | Q9HCT0 | recombinant FGF22 thermal shift, SYPRO orange fluorescence; percent of sucrose octasulfate shift, DMSO zero | calls only at 9.99 µM | 340,000 tested, 1.5% active;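 active = melting point raised past a set limit in the mean and every replicate; three in four hits are not shown here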
Target sequence (Q9HCT0 whole entry, looked up): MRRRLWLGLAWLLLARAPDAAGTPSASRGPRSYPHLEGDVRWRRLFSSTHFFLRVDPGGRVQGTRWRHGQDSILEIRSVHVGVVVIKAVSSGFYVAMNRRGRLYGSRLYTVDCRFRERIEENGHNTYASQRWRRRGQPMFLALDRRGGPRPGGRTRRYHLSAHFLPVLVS
Ecoli rRNA inh OD600 – recorded beside Ecoli rRNA inh, whose call it bears; OD600 change, %; measured here: OD600 growth;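 optical density of the mix in the first replicate; 0 = DMSO median and -100 = no signal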
Ecoli rRNA inh RFP – second read-out of Ecoli rRNA inh, no call of its own (marks repeat the call); RFP signal change, %; measured here: RFP humanized mutant strains;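 first replicate; 0 = DMSO median and -100 = no signal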
Active calls of the source: *; i = inactive; / = no result given; + = active, no number. Some of the compounds tested; count on the stated rates, not on these rows.

SMILES	Bfl-1 A1 inh	Ecoli growth	AF4-AF9 inh	UCH37 DUB inh	Ecoli rRNA inh	Ecoli rRNA inh OD600	Ecoli rRNA inh RFP	T cruzi inh	Beta cell apopt	FGF22 binding
CC(C)c1ccc(NC(=O)c2cccc(NC3=NC4CS(=O)(=O)CC4S3)c2)cc1 (centres undefined)	/	0.817	-9.9	0.6	-14.5	-8.1	-3.0	-3.1	-0.3	i
O=C(O)/C(=C/c1cccnc1)NC(=O)c1ccccc1	0.0	0.688	/	1.6	/	/	/	17.7	-1.4	/
COc1ccc2c(c1)n([O-])c1c([n+]2=O)CCC1	0.4	0.695	/	-83.1	/	/	/	-5.8	0.8	/
O=C1OC(c2ccc(Cl)cc2)=C/C1=C/c1cccnc1	-0.6	0.676	-5.3	-0.4	15.8	18.4	2.0	-3.7	3.5	i
O=C(c1ccc(Br)cc1)N1CCCC(c2nc(-c3cccs3)no2)C1 (centres undefined)	-0.2	/	-2.3	/	-22.5	-31.7	-3.4	12.3	3.1	/
CN(C)c1ccnc2sc3c(=O)n(-c4ccccc4)cnc3c12	-0.2	0.741	/	-10.1	/	/	/	-5.2	-19.5	/
Cc1cc(C)c2c3c(sc2n1)C(=O)N(c1ccccc1)CC(=O)N3	0.3	0.639	0.7	4.6	-7.0	7.3	0.3	2.7	/	i
O=C(N/N=C\c1c[nH]c2ccccc12)c1ccc(O)cc1	-0.4	/	-0.5	/	6.6	11.3	-11.6	-5.6	-4.4	+
O=C(CNC(=O)c1ccc(Br)cc1)Nc1ccc2c(c1)CCC2	0.0	0.73	-1.5	1.1	11.4	13.1	0.4	/	-3.6	i
O=[N+]([O-])c1cccc(NC(=S)N2CCN(c3ccccn3)CC2)c1	0.6	0.693	-4.5	1.7	7.4	8.6	-0.6	/	-4.0	i
COC(=O)Cn1c(-c2ccc(OC)cc2)c(-c2ccc(OC)cc2)nnc1=O	1.7	0.648	-1.6	5.2	1.6	4.0	0.9	13.1	1.5	i
O=C(NCc1cccnc1)C(=O)NCC1OCCN1S(=O)(=O)c1cc(F)ccc1F (centres undefined)	-0.4	0.649	-15.7	4.9	4.0	-3.5	-3.4	0.3	-3.6	i

A draw from above in order of length of the SMILES, high to low.
SMILES	Bfl-1 A1 inh	Ecoli growth	AF4-AF9 inh	UCH37 DUB inh	Ecoli rRNA inh	Ecoli rRNA inh OD600	Ecoli rRNA inh RFP	T cruzi inh	Beta cell apopt	FGF22 binding
CC(C)c1ccc(NC(=O)c2cccc(NC3=NC4CS(=O)(=O)CC4S3)c2)cc1 (centres undefined)	/	0.817	-9.9	0.6	-14.5	-8.1	-3.0	-3.1	-0.3	i
O=C(NCc1cccnc1)C(=O)NCC1OCCN1S(=O)(=O)c1cc(F)ccc1F (centres undefined)	-0.4	0.649	-15.7	4.9	4.0	-3.5	-3.4	0.3	-3.6	i
COC(=O)Cn1c(-c2ccc(OC)cc2)c(-c2ccc(OC)cc2)nnc1=O	1.7	0.648	-1.6	5.2	1.6	4.0	0.9	13.1	1.5	i
O=[N+]([O-])c1cccc(NC(=S)N2CCN(c3ccccn3)CC2)c1	0.6	0.693	-4.5	1.7	7.4	8.6	-0.6	/	-4.0	i
O=C(c1ccc(Br)cc1)N1CCCC(c2nc(-c3cccs3)no2)C1 (centres undefined)	-0.2	/	-2.3	/	-22.5	-31.7	-3.4	12.3	3.1	/
O=C(CNC(=O)c1ccc(Br)cc1)Nc1ccc2c(c1)CCC2	0.0	0.73	-1.5	1.1	11.4	13.1	0.4	/	-3.6	i
CN(C)c1ccnc2sc3c(=O)n(-c4ccccc4)cnc3c12	-0.2	0.741	/	-10.1	/	/	/	-5.2	-19.5	/
O=C(N/N=C\c1c[nH]c2ccccc12)c1ccc(O)cc1	-0.4	/	-0.5	/	6.6	11.3	-11.6	-5.6	-4.4	+
COc1ccc2c(c1)n([O-])c1c([n+]2=O)CCC1	0.4	0.695	/	-83.1	/	/	/	-5.8	0.8	/
O=C(O)/C(=C/c1cccnc1)NC(=O)c1ccccc1	0.0	0.688	/	1.6	/	/	/	17.7	-1.4	/

The list continues:
SMILES	Bfl-1 A1 inh	Ecoli growth	AF4-AF9 inh	UCH37 DUB inh	Ecoli rRNA inh	Ecoli rRNA inh OD600	Ecoli rRNA inh RFP	T cruzi inh	Beta cell apopt	FGF22 binding
CC(C)(C)c1ccc(-n2ncc3c2CCCC3NC(=O)CN2CCCC2=O)cc1 (centres undefined)	-0.3	0.727	-4.4	3.2	0.2	-0.3	0.8	-1.5	/	i
CC(OC(=O)c1ccc(F)cc1)C(=O)Nc1nc(-c2cccc([N+](=O)[O-])c2)cs1 (centres undefined)	0.7	0.708	6.5	0.5	13.7	6.1	-0.2	-11.7	-3.8	i
CCCn1nnc(NC(=O)COc2ccccc2Cl)n1	-0.7	0.629	/	2.1	0.8	6.9	-4.0	2.6	-0.5	/
CCOC(=O)N1CCN(C(=O)CCN2C(=O)/C(=C\c3cccc(OC)c3)SC2=S)CC1	-0.2	0.689	1.1	5.5	7.2	11.4	2.4	-25.0	-26.1	i
COc1ccc(/C=N/NC(=O)c2[nH]c3ccc(Br)cc3c2-c2ccccc2)c(C(=O)O)c1OC	0.9	/	1.8	/	-13.2	-14.1	9.7	-13.5	0.8	i
Cc1cc(C)c(C(=O)c2ccc(C(=O)NC(C)(C)C)cc2)c(C)c1	-0.3	0.729	/	4.2	/	/	/	13.4	-0.5	/
NC(=S)Nc1nc2ccccc2[nH]c1=O	0.9	0.667	-7.9	9.2	2.1	5.2	-4.2	-2.5	-6.5	i
CN(C(=O)COn1nnc2ccc(Cl)cc21)C1CCS(=O)(=O)C1 (centres undefined)	0.6	0.686	-7.1	1.7	11.0	15.6	0.2	/	-5.4	i
Cn1c(SCCC#N)nnc1-c1ccccc1F	-0.2	0.685	-1.8	-0.8	-1.0	-1.2	-3.7	-0.4	-1.8	/
CCc1ccc(C(=O)/C=C2\Sc3ccccc3NC2=O)cc1	-1.5	0.678	/	4.2	/	/	/	9.1	1.6	/
Nc1nnc(SCC(=O)NNC(=O)c2ccc(Cl)cc2)s1	0.4	0.671	-1.6	2.4	16.3	10.1	8.3	/	-5.8	i
C=CCn1c(SCc2n[nH]c(=S)n2-c2ccccc2)nnc1-c1ccccc1	-0.4	0.636	0.1	4.8	-21.5*	-8.6*	3.2*	-7.2	0.7	i
O=C(NCc1ccccc1)C1CCN(C(=O)NCc2ccccc2)CC1	-0.3	0.656	/	1.3	10.9	8.3	0.2	-8.9	-3.4	/
O=C(COc1ccc([N+](=O)[O-])cc1)NNC(=S)NC(=O)c1ccc(Br)cc1	0.1	0.586	-2.4	0.9	-48.7	-75.4	-20.3	2.3	-1.2	i
O=C(CC1CCCCC1)Nc1c2c(nn1-c1ccc(F)cc1)CS(=O)(=O)C2	-0.4	0.651	/	2.0	/	/	/	-5.3	3.4	/
Cc1ccc(S(=O)(=O)Oc2ccc(/C=C3\C(=N)N4N=C(S(C)(=O)=O)SC4=NC3=O)cc2)cc1	0.4	0.699	-0.3	4.3	-5.7	-19.4	6.9	-13.0	-0.8	i
COc1ccc(CCC(=O)NCCCNC(=O)CCc2ccc(OC)cc2)cc1	1.1	0.68	/	1.6	/	/	/	-4.3	/	/
CCn1c(SCc2ccc(C#N)cc2)nnc1-c1cccc(Cl)c1	0.5	0.689	-39.5	-0.4	-10.4	-16.5	0.2	14.0	-10.9	i
O=C1CC(c2ccccc2)CC(=O)C1Sc1ccc(Cl)cc1 (centres undefined)	0.9	0.62	/	4.0	/	/	/	9.6	-8.2	/
COc1ccc(CCNC(=O)N[C@@H](Cc2ccccc2)C(=O)O)cc1	0.7	0.676	3.6	3.8	1.2	-3.3	-2.5	-9.8	-4.5	i
CCC(CC)C(=O)N1N=C(c2ccc(NS(C)(=O)=O)cc2)CC1c1ccc(C)cc1 (centres undefined)	0.5	0.702	5.4	-193.1	-13.4	-12.1	24.5	6.5	3.5	i
CC(=O)N1c2ccc(S(=O)(=O)N3CCC(C(=O)NCc4ccc(Cl)cc4)CC3)cc2CC1C (centres undefined)	-0.4	0.636	-0.2	1.8	-8.1	-10.6	1.4	-7.9	28.7	i
COc1ccc(OC)c(S(=O)(=O)N2CCN(C(=O)NC3CCCCC3)CC2)c1	0.2	0.685	0.7	3.1	1.3	9.5	2.2	/	-3.2	i
COc1ccc(CC(=O)N2CCC(Nc3nc4ccccc4n3Cc3ccc(F)cc3)CC2)cc1	-0.5	0.697	/	1.9	/	/	/	4.4	-0.3	/
CCN(CC)S(=O)(=O)c1ccc2c(c1)oc(=O)n2CC(=O)NC1CCCCC1	0.1	0.713	0.0	5.4	5.3	9.6	1.5	-5.9	0.9	i
CCOC(=O)C(C)Sc1nc2c(cnn2-c2ccc(C)cc2)c(=O)[nH]1 (centres undefined)	0.0	0.737	/	-0.2	/	/	/	-2.5	-3.1	/
O=C(COC(=O)c1cc(=O)[nH]c2ccccc12)Nc1cccc(S(=O)(=O)N2CCOCC2)c1	1.4	0.723	-4.2	-18.4	-17.1*	0.5*	6.2*	-6.5	-8.5	i
C=CCN1c2ccccc2[C@]23C[C@@H](C(=O)OC)N(C(=O)CC(C)C)C2=NC(C(=O)OC)=C(C(=O)OC)[C@H]13	-0.1	/	9.5	2.7	11.2	-1.0	-8.8	9.4	3.2	i
CCN(CC)c1ccc(/C=N/NC(=O)OC(C)(C)C)cc1	0.1	/	7.7	/	1.4	4.8	-2.9	-3.2	-0.6	i
CCC(=O)N1CCc2cc(S(=O)(=O)CCC(=O)NCCc3ccc(OC)c(OC)c3)ccc21	0.0	0.732	/	-1.0	/	/	/	0.6	-4.5	/
COc1cc(OC)cc(C(=O)N[C@H](C(=O)NCc2ccccc2)C(C)C)c1	0.5	0.668	-4.4	4.4	11.9	-9.0	-3.6	-8.1	-2.7	i
O=c1ccn(-c2cccc(C(F)(F)F)c2)nc1-c1ccn(-c2ccccc2)n1	0.1	0.65	/	5.0	/	/	/	12.2	1.8	/
CCN(CC)S(=O)(=O)c1cccc(S(=O)(=O)c2cccc(S(=O)(=O)N(CC)CC)c2)c1	-0.4	0.737	/	0.3	/	/	/	13.8	8.9	/
CCCCC(=O)Nc1ncc([N+](=O)[O-])s1	-3.8	0.63	0.2	7.9	-53.4	-80.1	-26.8	/	8.8	i
COc1cccc(CNC(=O)CCC2CCCN(C(=O)CCn3cncn3)C2)c1 (centres undefined)	-0.1	0.684	-1.3	3.2	14.6	3.7	-0.3	-1.4	-2.0	i
Cc1ccc(NC(=O)CN2C(=O)S/C(=C\C(=O)Nc3ccc(Cl)cc3)C2=O)cc1	0.3	0.715	-11.1	3.6	4.3	-0.3	-1.9	2.0	-4.4	i
Cn1c(SCC(=O)N2CCOCC2)nc2sc3c(c2c1=O)CCCC3	0.4	0.711	/	5.1	/	/	/	12.2	-4.7	/
